GIRK2 activ: activators of human GIRK2 potassium channels; 63,000 tested, 0.05% active; calls only for hits at 25 µM; P48051; HEK293-GIRK2 thallium flux, Thallos fluorescence;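 active means among the strongest 0.2% of first-round signals and kept after retests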;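 further: first round at about 10 µM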
Target sequence (P48051 whole entry, looked up): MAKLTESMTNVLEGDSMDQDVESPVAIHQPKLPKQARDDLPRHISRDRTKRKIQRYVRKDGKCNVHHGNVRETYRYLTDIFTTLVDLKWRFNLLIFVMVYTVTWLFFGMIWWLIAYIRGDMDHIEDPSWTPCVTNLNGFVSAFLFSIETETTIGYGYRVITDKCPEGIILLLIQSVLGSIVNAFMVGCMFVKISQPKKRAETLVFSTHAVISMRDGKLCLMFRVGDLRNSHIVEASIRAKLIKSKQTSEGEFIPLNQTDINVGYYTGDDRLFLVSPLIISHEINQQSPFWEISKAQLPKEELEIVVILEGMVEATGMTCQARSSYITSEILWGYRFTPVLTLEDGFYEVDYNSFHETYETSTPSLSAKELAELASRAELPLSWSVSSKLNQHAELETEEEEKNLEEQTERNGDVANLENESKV
Calls only; i = inactive. A portion of the library (hit frequency here may not be typical).

GIRK2 activ	structure
i	N#Cc1ccc(OC2CCN(C(=O)Nc3ccc(Cl)cc3)CC2)nc1
i	CCOc1ccc(C)cc1S(=O)(=O)Nc1ccc2c(c1)CCC(=O)N2
i	CCCCCCCCCCCCCCCCOCC(COP(=O)([O-])OCC[N+](C)(C)C)OC (centres undefined)
i	O=C(NCc1ccc(C(F)(F)F)cc1)c1ccc(Oc2nccnc2N2CCOCC2)cc1
i	COc1ccc(-c2nn3ncccc3c2-c2ccnc(Nc3cccc(C(F)(F)F)c3)n2)cc1
i	COc1cc(Cn2c(N)c(C#N)c3nc4ccccc4nc32)cc(OC)c1OC
i	Cc1csc(SCC2CCN(C(=O)/C=C/c3ccccc3)CC2)n1
i	COc1ccccc1NC(=O)Cn1c(=O)c(CNc2ccccc2)cc2ccc(C)cc21
i	Cc1nc2cc(NC(=O)c3csc(Nc4ncccn4)n3)ccc2s1
i	O=C(COc1ccccc1)N1CCC2(CC1)OCCS2
i	CCOCCn1c(N2CCCCCC2)nc2c1c(=O)[nH]c(=O)n2C
i	CCCn1c(=O)c2ccc(C(=O)NC3CCCCC3)cc2n2c(=O)n(Cc3cccc(OC)c3)nc12
i	COC(=O)c1ccc(CN(c2ccc(F)cc2)S(=O)(=O)c2cccn3c(C)nnc23)o1
i	CCCn1c(=O)c2c(nc3n2CC(C)=NN3CC(N)=O)n(C)c1=O
i	COc1ccc(CC(C)(O)CNC(=O)c2cccc3ccccc23)cc1 (centres undefined)
i	Cc1cc(NC(=O)Cn2cnc3c(sc4ccccc43)c2=O)ccc1Br
i	N#Cc1nc(-c2ccc(S(=O)(=O)N3CCOCC3)cc2)oc1NCc1ccccc1Cl
i	COc1ccccc1OCC#CCNC(=O)c1cccn(C)c1=O
i	COc1ccc(NC(=O)Nc2ccc(Nc3cc(C)nc(N4CCCC4)n3)cc2)c(C)c1
i	Cc1nnsc1C(=O)N1CC(Oc2nc3c(C(F)(F)F)cccc3s2)C1
i	O=C(c1cc(Br)ccc1Cl)N1CCC(COCc2ccc(F)cc2)CC1
i	Cc1ccc(NC(=O)c2nnn(-c3cc(C)ccc3Cl)c2C)cc1
i	Cc1ccc2c(c1)N(C(=O)CSC1=NS(=O)(=O)c3ccccc3N1)CCO2
i	COC(=O)c1sc2cccc(F)c2c1S(=O)(=O)N1CCN(c2cc(C)ccc2C)CC1
i	COC(=O)C1=C(CS(=O)(=O)c2ccccc2)NC(=O)NC1c1ccc(O)c(OC)c1 (centres undefined)
i	O=C(NCc1ccccc1)c1cn(-c2cc(N3CCCCC3)ncn2)cn1
i	Cc1ccc2c(=O)c(C(=O)N3CCOCC3)cn(CC(=O)Nc3ccc(C)c(C)c3)c2n1
i	CCc1ccccc1NC(=O)CSc1ncc(-c2ccc(C)c(C)c2)o1
i	CCCCn1c(SCc2nc(-c3cc(OC)cc(OC)c3)no2)nc2cc3c(cc2c1=O)OCO3
i	CCOc1ccc(-c2nc(N)ncc2-c2ccc(OC)cc2)c(O)c1
i	O=C(NCC(c1ccco1)N1CCN(c2ccc(F)cc2)CC1)c1cc(C2CC2)on1 (centres undefined)
i	CCCC(=O)N1CCN(C(=O)C(NC(=O)c2ccc(C)cc2)S(=O)(=O)c2ccc(C)cc2)CC1 (centres undefined)
i	O=C(c1nnn(-c2ccc(Br)cc2)n1)N(CCO)C1CCCCC1
i	O=C(NCC1(CO)CC1)C(=O)Nc1cccnc1
i	COC1(CNC(=O)c2ccsc2)CCSC1 (centres undefined)
i	COc1cc(CN2CCC(c3cccs3)CC2)cc(OC)c1
i	O=S(=O)(Nc1ccncc1)c1ccc(-c2ccc(Cl)cc2)cc1
i	O=S(=O)(NCC(O)c1ccc2c(c1)CCO2)c1cc(Cl)ccc1Cl (centres undefined)
i	COc1ccc(CCC(=O)N2CCC(CSc3ccccn3)CC2)cc1
i	CCOCC(=O)N1C2CCCC1COC2
i	O=S(=O)(c1ccc(Cl)cc1)N1CCN=C1c1ccccc1
i	CCOC(=O)c1cccc(NC(=O)Cn2cc(-c3nc(-c4ccc(OC)cc4)no3)ccc2=O)c1
i	Cc1ccc(C)c(-c2cc3c(SCC(=O)OC(C)C)nccn3n2)c1
i	COc1ccc(/C=C2\Oc3c(ccc(OC(C)=O)c3C)C2=O)c(OC)c1
i	COc1ccc(-c2ccc3c(NC(=O)C4CC4)n[nH]c3n2)cc1
i	O=C(NCc1cccnc1)c1c[nH]c2c(C(F)(F)F)cccc2c1=O
i	O=C(CNC(=O)c1ccccc1)Nc1cnc(-n2cccn2)nc1
i	COC(=O)N1CCN(CCNC(=O)c2cnc3ccccc3n2)CC1
i	O=C(Cn1nc(-c2ccccc2)ccc1=O)Nc1cc(Cl)ccc1Cl
i	Cc1c(C(=O)NCCc2ccccc2)nnn1-c1ccc2noc(-c3ccccc3)c2c1

Further results
GIRK2 activ	structure
i	O=C(Nc1ccc(N2CCCCC2=O)cc1)Nc1c(F)cccc1F
i	CCOC(=O)NCCc1ccoc1
i	Cn1nc(N2CCC(C(=O)Nc3ccc(F)c(Cl)c3)CC2)ccc1=O
i	CN1CC(C(=O)NCC#CCOc2cccc(C(F)(F)F)c2)CC1=O (centres undefined)
i	CCn1nc(C(=O)Nc2nnc(-c3sc(C)nc3C)o2)cc1C
i	O=C(CN1CCN(Cc2nc3ccccc3[nH]2)CC1)N1CCCCC1
i	CC(=O)Nc1ccc(S(=O)(=O)N2CCN(c3cc(-n4ccnc4C)ncn3)CC2)cc1
i	CCCCS(=O)(=O)NCC1CCN(C(C)C)CC1
i	COc1ccc(C(C)NC(=O)Cn2c(C)nc3c(c2=O)CN(Cc2ccccc2)CC3)cc1 (centres undefined)
i	COc1ccc(Cc2nnc(C3CCN(C(=O)c4cccs4)CC3)s2)cc1
i	O=C(C1CC=CCC1)N1CCN(CC(O)C2CC2)CC1 (centres undefined)
i	Cn1ccnc1SCC1CCN(C(=O)Cc2ccccc2Cl)CC1
i	Cn1nnc2c(C(N)=O)ncn2c1=O
i	CCn1c(SCC(=O)Nc2ccccc2OC)nc2nc(N3CCC(C)CC3)sc2c1=O
i	Cn1c(C2CCN(S(C)(=O)=O)CC2)nn(Cc2ccc(F)cc2)c1=O
i	O=C(NCCC(O)c1ccc2c(c1)OCO2)c1ccc(Cl)c(Cl)c1 (centres undefined)
i	CCCn1c(CCNC(=O)c2ccco2)nc2ccccc21
i	O=C(NCCCN1CCN(c2ccccc2)CC1)c1cccc(C(F)(F)F)c1
i	O=C(NNC(=O)c1c(F)cccc1Cl)c1ccc(=O)n(Cc2ccc(Cl)cc2)c1
i	N#Cc1c(NC(=O)c2cccc3ccccc23)sc2c1CCCC2
i	O=C(NCC1CCN(C(=O)c2ccoc2)CC1)c1cccc(Br)c1
i	Cc1ccc(S(=O)(=O)C(NC(=O)c2ccccc2)C(=O)N2CCN(C(=O)c3ccco3)CC2)cc1 (centres undefined)
i	CCOC(=O)N1CCC(NC(=O)CCc2csc(NC(=O)Nc3ccccc3)n2)CC1
i	O=C(CSc1nnc(-c2ccccc2)o1)c1ccc(-c2ccc(Cl)cc2Cl)o1
i	CC(=O)Nc1ccc(NC(=O)CCc2ccc(-c3ccc(Cl)cc3)o2)cc1

Random excerpt: four compounds from above.
GIRK2 activ	structure
i	COC(=O)c1sc2cccc(F)c2c1S(=O)(=O)N1CCN(c2cc(C)ccc2C)CC1
i	COc1cc(Cn2c(N)c(C#N)c3nc4ccccc4nc32)cc(OC)c1OC
i	O=S(=O)(Nc1ccncc1)c1ccc(-c2ccc(Cl)cc2)cc1
i	O=C(NCc1ccc(C(F)(F)F)cc1)c1ccc(Oc2nccnc2N2CCOCC2)cc1

The listing picks up, repeating the 2 entries before the break.
GIRK2 activ	structure
i	O=C(CSc1nnc(-c2ccccc2)o1)c1ccc(-c2ccc(Cl)cc2Cl)o1
i	CC(=O)Nc1ccc(NC(=O)CCc2ccc(-c3ccc(Cl)cc3)o2)cc1
i	CC(=O)Cn1c(=O)c2c(nc3n2CCCN3Cc2ccco2)n(C)c1=O
i	Cn1c(C(F)(F)F)nn(CCNC(=O)c2ccc(OC(F)(F)F)cc2)c1=O
i	CNC(=O)c1cncc(/C=C/c2ccccc2Cl)c1
i	Cc1noc(CNC(=O)c2ccc(-n3cccc3)cc2)n1
i	CC1(C)CC(NC(=O)C23CCC(C2)C(C)(C)C3=O)CC(C)(C)N1 (centres undefined)
i	COc1ccc(NC(=O)C(=O)NCC(C)(O)CSC)c(OC)c1 (centres undefined)
i	O=C(CSCc1ccccc1)Nc1cccc2ccc(-n3ccnc3)nc12
i	O=C(/C=C/c1cccs1)N1CCN(CC(O)C2CC2)CC1 (centres undefined)
i	COc1ccc2c(CN3CCN(c4ccccc4)CC3)cc(=O)oc2c1
i	CC(=O)Nc1ccc(C(=O)NCCNS(=O)(=O)c2c(C)cc(C)cc2C)cc1
i	O=C1CCSCC(C(=O)N2CCOCC2)N1 (centres undefined)
i	COc1ccc2c(=O)c(Oc3ccc(C(=O)NCc4ccco4)cc3)coc2c1
i	CCc1cccc(NC(=O)c2nc(-c3cn(Cc4ccc(F)cc4)nn3)no2)c1
i	CC(C)c1ccc(S(=O)(=O)c2nnn3c2nc(N2CCOCC2)c2sccc23)cc1
i	Cc1cc(C)c(S(=O)(=O)NCc2ccccc2)cc1N(C)S(=O)(=O)c1ccccc1
i	O=C1CN(C(=O)Cn2cnc3ccccc32)CCN1
i	COc1ccc(NC(=O)c2cc(=O)c(OC)cn2C)cc1Cl
i	COC(=O)c1ccc(Oc2coc3c4c(ccc3c2=O)OCN(Cc2ccco2)C4)cc1
i	Cc1cccc(NS(=O)(=O)c2ccc(CN3C(=O)c4ccccc4C3=O)cc2)c1
i	COc1ccc(S(=O)(=O)N2CCCOC2CNC(=O)C(=O)NCCN(C)C)cc1 (centres undefined)
i	Cn1cccc(C(=O)NCc2cc(-c3cccs3)n(C3CCCC3)n2)c1=O
i	O=C(Nc1ccccc1)N1CC(c2nc(-c3ccc[nH]c3=O)no2)C1
i	Cc1cc(C(=O)Nc2nnc(-c3sc(C)nc3C)o2)c(C)o1
i	Cc1cn2c3c(=O)n(C)c(=O)n(C)c3nc2n1CCCNc1cccc(Cl)c1
i	Cc1ccc(NC(=O)Cn2nc3c(SCc4ccccc4)nccn3c2=O)cc1C
i	O=C(Nc1ccc(-n2cnnn2)cc1)c1ccc(-n2ccnc2)nn1
i	CCOC(=O)c1cnn2ccc(NC(=O)c3c(F)cccc3F)cc12
i	COc1cc(C)c(C(=O)O[C@H]2[C@@H](OC(C)=O)[C@H](n3ccc(=O)[nH]c3=O)O[C@@H]2CO)c(OC)c1
i	Cc1cccc(Nc2c(C(=O)N3CCCC3)cnc3nc(C)ccc23)c1
i	O=S(=O)(Nc1nc2ccccc2nc1Nc1ccc2c(c1)OCO2)c1cccs1
i	O=C1OC(=O)C(c2c[nH]c3ccccc23)=C1c1c[nH]c2ccccc12
i	CCOC(=O)N1CCN(C(=O)c2ccsc2)CC1
i	O=C1c2oc3ccc(Cl)cc3c(=O)c2C(c2cccc([N+](=O)[O-])c2)N1c1nccs1 (centres undefined)
i	CC(C)c1nccn1CC1CCN(C(=O)C2CCC2)CC1
i	COc1ccccc1N1CCN(CCNC(=O)c2ccc3c(c2)OCO3)CC1
i	O=C(COc1ccc(F)cc1)Nc1ccccc1NC(=O)c1ccccc1Cl
i	CCOc1ccc(/C=C2\SC(=S)N(c3ccccc3Cl)C2=O)cc1OC
i	CCc1ccc(C(=O)c2cn(CC(=O)Nc3ccc(F)cc3)c3ccc(OC)cc3c2=O)cc1
i	COc1cc(OC)cc(C(=O)Nc2nnc(-c3cccs3)o2)c1
i	O=C(NCC1CCN(C(=O)c2cccnc2)CC1)c1ccc2nsnc2c1
i	COc1ccc(Cl)cc1S(=O)(=O)NCCC(O)c1ccccc1 (centres undefined)
i	Cc1nc(-c2ccccc2Cl)sc1CNC(=O)c1cc(-c2ccc(F)cc2)nn1C
i	CC(=O)c1cccc(NC(=O)Cc2c(C)nc(SCc3cccc(Cl)c3)[nH]c2=O)c1
i	CCOC(=O)C1CCN(C(=O)CCCSc2ccc(NC(=O)C3CC3)nn2)CC1
i	COc1ccccc1Cn1c(C2CC(=O)N(c3ccccc3OC)C2)nc2ccccc21 (centres undefined)
i	CSc1ccccc1NC(=O)C(=O)NCCC(O)c1cc(C)oc1C (centres undefined)
i	CC(C)(C)c1cc(NC(=O)CSc2n[nH]c(N)n2)cc(C(C)(C)C)c1
i	CC(C)CC(=O)N1CCCC(c2nnc(-c3ccccc3F)s2)C1 (centres undefined)
i	CC(NC(=O)C(=O)NCCC(O)c1cccc2ccccc12)c1ccccc1 (centres undefined)
i	C=CCOC(=O)COc1ccc2c(=O)c(-c3ccc(Cl)cc3)coc2c1

The list goes on (five carried over from the part before).
GIRK2 activ	structure
i	CSc1ccccc1NC(=O)C(=O)NCCC(O)c1cc(C)oc1C (centres undefined)
i	CC(C)(C)c1cc(NC(=O)CSc2n[nH]c(N)n2)cc(C(C)(C)C)c1
i	CC(C)CC(=O)N1CCCC(c2nnc(-c3ccccc3F)s2)C1 (centres undefined)
i	CC(NC(=O)C(=O)NCCC(O)c1cccc2ccccc12)c1ccccc1 (centres undefined)
i	C=CCOC(=O)COc1ccc2c(=O)c(-c3ccc(Cl)cc3)coc2c1
i	COC(=O)CC1=CC(SCC(=O)Nc2ccc(OC)cc2)=Nc2ccccc2N1
i	CCCCOc1ccc(-c2cc3c(=O)n(CC(=O)NCc4ccc(C)cc4)ccn3n2)cc1
i	O=C(NCCOc1ccccc1)c1ccc(S(=O)(=O)N2CCOCC2)cc1
i	CC(=O)Nc1ccc(NC(=O)CSc2nnnn2-c2ccc(C)c(C)c2)cc1
i	O=c1n(Cc2ccccn2)nc2c(-c3nc(-c4ccc(Cl)cc4)no3)cccn12
i	O=C(Nc1ccccc1Cl)N1CCN(c2ccc(-n3cccc3)nn2)CC1
i	COc1cccc(OC)c1C(=O)NCCn1ncccc1=O

3 compounds out of the list, arranged by heavy-atom count, ascending:
GIRK2 activ	structure
i	O=C(Nc1ccccc1Cl)N1CCN(c2ccc(-n3cccc3)nn2)CC1
i	CC(=O)Nc1ccc(NC(=O)CSc2nnnn2-c2ccc(C)c(C)c2)cc1
i	O=c1n(Cc2ccccn2)nc2c(-c3nc(-c4ccc(Cl)cc4)no3)cccn12
